Vaccinia stage: blocks a specific stage of Vaccinia orthopoxvirus infection, primary screen, cell-based, single point | Vaccinia-infected cells, mCherry/Venus stage reporter fluorescence; active compounds read low; some inactives read as strong as hits | activity change (mCherry), % (test concentration not listed) | 89,000 compounds, 0.01% hits;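 active means mCherry past -33% and 40 or more points under the early reporter, replicates agreeing; inconclusive means past -33% without that gap or agreement; tested in A549 cells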;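 further: scaled between vehicle wells and reference inhibitor wells; 23 nL library stock went into each well; one replicate is shown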
Vaccinia stage Venus: also measured in Vaccinia stage; calls as there; activity change (Venus), %; measured here: Venus reporter, other viral stage;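 negative = less Venus signal; first of two replicates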
The depositor's hits bear a star; ? = inconclusive; nt = no result given. The list is partial. The share of hits here may be higher or lower than overall.

SMILES	Vaccinia stage	Vaccinia stage Venus
C[C@H](CO)N1C[C@H](C)[C@@H](CN(C)Cc2ccc(C(F)(F)F)cc2)Oc2ccc(NC(=O)Nc3ccc(C(F)(F)F)cc3)cc2CC1=O	?	nt
COc1ccc(CCN2C(=O)[C@@]3(Cc4ccccc42)c2ccccc2C(=O)N(C2CCCCC2)[C@H]3c2ccc(CO)cc2)cc1	13	10
C[C@@H]1CCCCO[C@H](CN(C)S(=O)(=O)c2ccc(Cl)cc2)[C@H](C)CN([C@@H](C)CO)C(=O)c2cc(NC(=O)CCCN(C)C)ccc2O1	-11	-8
CCCNC(=O)N1CC2(C1)[C@H](c1ccccc1)[C@H](CO)N2Cc1cccc(F)c1	-7	-2
O=C(C1=C[C@H](c2ccc(C(F)(F)F)cc2)C[C@H](OCCCCO)O1)N1CCN(Cc2ccccc2)CC1	-21	-19
Cn1cnc(S(=O)(=O)N2C[C@H](O)COC[C@@H]3O[C@H](CC(=O)NCc4cc(F)cc(F)c4)CC[C@H]32)c1	4	6
Cc1noc(C)c1NC(=O)N(C)C[C@@H]1Oc2ccc(NS(=O)(=O)c3ccccc3)cc2CC(=O)N([C@@H](C)CO)C[C@@H]1C	17	6
O=C(C[C@H]1C[C@H]2c3cc(NC(=O)Nc4ccc(C(F)(F)F)cc4)ccc3O[C@H]2[C@H](CO)O1)NCCc1ccccc1	7	5
CCCNC(=O)N(C)C[C@@H]1Oc2cc(C#C[C@@H](C)O)ccc2S(=O)(=O)N([C@H](C)CO)C[C@H]1C	26	9
C[C@@H]1CN([C@H](C)CO)C(=O)CCCn2cc(nn2)CO[C@H]1CN(C)C	-5	-1
CN1CCN(C(=O)C[C@H]2CC[C@@H]3[C@H](COC[C@H](O)CN3Cc3cccc(Cl)c3)O2)CC1	-3	-3
O=C(NC1CCC1)[C@@H]1[C@@H](CO)[C@@H]2Cn3c(ccc(-c4cncnc4)c3=O)[C@H]1N2CCc1ccccc1	7	10
C[C@H]1CN([C@@H](C)CO)C(=O)c2cc(-c3cccc(C(=O)N(C)C)c3)cnc2O[C@H]1CN(C)C	34	18
C[C@@H]1CCCCO[C@H](CN(C)C(=O)Nc2ccc(F)cc2)[C@@H](C)CN([C@@H](C)CO)C(=O)c2cc(NC(=O)c3ccccc3)ccc2O1	?	nt
CO[C@H]1CN(C)C(=O)c2ccc(NC(=O)C3CC3)cc2OC[C@H](C)N(Cc2cccnc2)C[C@@H]1C	-1	-1
O=C(O)[C@@H]1[C@@H](CO)[C@@H]2Cn3c(ccc(-c4cccnc4)c3=O)[C@H]1N2C(=O)Nc1cc(F)ccc1F	1	1
Cc1ccccc1S(=O)(=O)N1CCCCN2[C@H](CO)[C@@H](c3ccc(-c4cccnc4)cc3)[C@H]2C1	-26	-22
CN1C(=O)c2cc(NC(=O)Cc3ccccc3)ccc2OC[C@@H]2O[C@H](CC(=O)NC3CCC3)CC[C@H]21	15	13
CO[C@H]1CN(C)C(=O)c2ccc(NC(=O)C3CCCC3)cc2OC[C@H](C)N(CCC(F)(F)F)C[C@H]1C	-1	-2
O=C(NCc1ccc(F)cc1)[C@H]1[C@H](CO)[C@H]2Cn3c(ccc(-c4cccnc4)c3=O)[C@@H]1N2	3	-5
C[C@@H]1CN([C@H](C)CO)S(=O)(=O)c2ccc(/C=C/c3ccccc3)cc2O[C@H]1CN(C)C(=O)NC1CCCC1	?	nt
CN(C)C(=O)C[C@@H]1C[C@@H]2c3cc(NC(=O)C4CCOCC4)ccc3O[C@@H]2[C@H](CO)O1	9	2
COc1ccccc1CN(C)C[C@H]1OCc2cnnn2CCCC(=O)N([C@@H](C)CO)C[C@@H]1C	0	-3
C[C@H](CO)N1C[C@H](C)[C@H](CN(C)C(=O)Nc2ccc(F)cc2)Oc2ccc(NC(=O)Cc3cn(C)c4ccccc34)cc2CC1=O	5	4
O=C(C[C@H]1CC[C@@H](NC(=O)Nc2ccc3c(c2)OCO3)[C@H](CO)O1)NCc1ccc(Cl)cc1	12	12

Next records follow.
SMILES	Vaccinia stage	Vaccinia stage Venus
COc1cccc(-c2cnc3c(c2)C(=O)N([C@H](C)CO)C[C@H](C)[C@H](CN(C)C(=O)Nc2ccc(F)cc2)O3)c1	-4	1
COc1cccc(S(=O)(=O)N2C[C@H](O)COC[C@H]3O[C@@H](CC(=O)N4CCN(c5ccccc5)CC4)CC[C@@H]32)c1	-19	-14
C[C@@H]1CN([C@@H](C)CO)C(=O)c2cc(NC(=O)Cc3ccccc3)ccc2O[C@@H](C)CCCCO[C@@H]1CN(C)C	1	2
CO[C@@H]1CN(C)C(=O)c2cc(NC(C)=O)ccc2OC[C@@H](C)N(Cc2cc(F)ccc2F)C[C@H]1C	3	-2
Cc1noc(C)c1NC(=O)N(C)C[C@@H]1Oc2c(NC(=O)C3CCCCC3)cccc2C(=O)N([C@H](C)CO)C[C@H]1C	13	14
CO[C@@H]1CN(C)C(=O)c2cc(NC(=O)C3CC3)ccc2OC[C@H](C)N(Cc2cc(F)ccc2F)C[C@@H]1C	-32	-23
N#C[C@H]1[C@@H](c2ccccc2-c2cccc(F)c2)[C@@H](CO)N1C(=O)C1CC1	-3	-3
C[C@@H]1CN([C@@H](C)CO)C(=O)c2cc(NS(=O)(=O)c3ccc(F)cc3)ccc2O[C@@H](C)CCCCO[C@@H]1CN(C)S(=O)(=O)c1ccc(Cl)cc1	-20	-16
COc1ccc2c3c(n(C)c2c1)[C@@H](CO)N(C(=O)C1CCCC1)CC31CCN(C(=O)CN(C)C)CC1	-1	4
COc1cccc(S(=O)(=O)N2CCCCN3[C@@H](CO)[C@@H](c4ccc(C#CC5CC5)cc4)[C@@H]3C2)c1	?	nt
Cc1noc(C)c1NC(=O)N(C)C[C@@H]1Oc2ccc(NC(=O)NC3CCCCC3)cc2CC(=O)N([C@H](C)CO)C[C@@H]1C	19	12
O=C(C[C@H]1C[C@@H]2c3cc(NC(=O)NC4CCCC4)ccc3O[C@@H]2[C@H](CO)O1)NCCc1ccccc1	4	6
CC(C)(O)C#Cc1ccc([C@@H]2[C@@H](CO)N3CCCCN(S(C)(=O)=O)C[C@H]23)cc1	9	5
C[C@@H]1CN([C@@H](C)CO)C(=O)c2cc(NC(=O)Nc3ccc4c(c3)OCO4)ccc2O[C@H]1CN(C)Cc1ccncc1	9	10
CNC[C@@H]1Oc2ccc(NS(=O)(=O)c3ccc(F)cc3)cc2CC(=O)N([C@@H](C)CO)C[C@H]1C	19	18
O=C(C[C@@H]1C=C[C@H](NC(=O)Nc2cc(F)ccc2F)[C@H](CO)O1)NCc1ccncn1	4	2
CC=Cc1ccc2n(c1=O)C[C@H]1[C@H](CO)[C@@H](C(=O)NCC3CC3)[C@@H]2N1Cc1cccnc1 (mixture of isomers)	?	nt
COc1cccc(NC(=O)N2CC(=O)N3[C@H](CO)[C@H](c4ccc(C#CC5CCCC5)cc4)[C@@H]3C2)c1	-33	-31
C[C@H](CO)N1C[C@H](C)[C@@H](CN(C)S(=O)(=O)c2cn(C)cn2)OCCCC[C@H](C)Oc2ccc(NS(=O)(=O)c3ccc(F)cc3)cc2C1=O	17	8
C[C@@H]1CN([C@H](C)CO)C(=O)c2cc(NS(=O)(=O)c3ccccc3)ccc2O[C@@H](C)CCCCO[C@H]1CN(C)Cc1ccncc1	8	3
CCCC#Cc1ccc([C@@H]2[C@@H](CO)N(C(=O)C3CCC3)[C@H]2C#N)cc1	-12	-11
COc1ccc(-c2ccc3c(c2)O[C@@H](CN(C)Cc2cccnc2)[C@@H](C)CN([C@H](C)CO)S3(=O)=O)cc1	-27	-21
C[C@H]1CN([C@@H](C)CO)C(=O)c2cc(NC(=O)Cc3ccccc3)ccc2O[C@H]1CN(C)C	17	7
O=C(C[C@@H]1CC[C@H](NC(=O)c2cccnc2)[C@H](CO)O1)NCCN1CCCCC1	7	1
Cc1noc(C)c1S(=O)(=O)Nc1cccc2c1O[C@H](CN(C)S(=O)(=O)c1ccc(Cl)cc1)[C@H](C)CN([C@@H](C)CO)C2=O	-14	-14

Other compounds follow.
SMILES	Vaccinia stage	Vaccinia stage Venus
Cc1noc(C)c1NC(=O)N(C)C[C@H]1Oc2ccc(NC(=O)Nc3ccc(C(F)(F)F)cc3)cc2CC(=O)N([C@@H](C)CO)C[C@@H]1C	8	10
C[C@@H]1CN([C@@H](C)CO)C(=O)c2cc(C#CCN(C)C)cnc2O[C@@H]1CN(C)S(=O)(=O)c1ccccc1	0	0
Cc1noc(C)c1NC(=O)N(C)C[C@H]1Oc2ccc(NC(=O)Nc3ccc4c(c3)OCO4)cc2C(=O)N([C@@H](C)CO)C[C@@H]1C	6	1
C[C@@H]1CN([C@H](C)CO)C(=O)c2cc(C#Cc3ccc(F)cc3)cnc2O[C@@H]1CN(C)C(=O)c1ccccc1F	?	nt
CNC[C@H]1OCCCC[C@@H](C)Oc2ccc(NC(=O)Cc3ccccc3)cc2C(=O)N([C@H](C)CO)C[C@H]1C	2	3
CO[C@H]1CN(C)C(=O)c2cc(NC(=O)Nc3ccccc3F)ccc2OC[C@@H](C)N(CC2CC2)C[C@H]1C	-3	-3
O=C(C[C@@H]1CC[C@@H](NC(=O)C2CCC2)[C@@H](CO)O1)NCc1ccccc1Cl	11	8
CCC(=O)N(C)C[C@H]1Oc2cc(-c3cccc(F)c3)ccc2S(=O)(=O)N([C@H](C)CO)C[C@H]1C	1	-10
O=S(=O)(c1ccccc1)N1CCCCN2[C@@H](CO)[C@H](c3ccc(-c4ccccc4)cc3)[C@@H]2C1	14	12
COCc1cn(CC[C@@H]2CC[C@H](NC(=O)Nc3ccccc3)[C@H](CO)O2)nn1	4	6
O=C(C1CC1)N1CC[C@@H]2[C@H](CO)Nc3ccc(Br)cc3[C@@H]21	-25	-19
C[C@@H]1CCCCO[C@@H](CN(C)C(=O)c2ccccc2)[C@@H](C)CN([C@@H](C)CO)C(=O)c2cc(NC(=O)Nc3ccc(C(F)(F)F)cc3)ccc2O1	-6	4
O=C(NCC1CC1)[C@H]1[C@H](CO)[C@H]2Cn3c(ccc(-c4ccccc4)c3=O)[C@H]2N1CC1CC1	-11	4
Cc1ccc(S(=O)(=O)N(C)C[C@H]2Oc3ccc(NC(=O)Nc4c(C)noc4C)cc3CC(=O)N([C@@H](C)CO)C[C@H]2C)cc1	21	7
CO[C@@H]1CN(C)C(=O)c2ccc(NC(=O)NC(C)C)cc2OC[C@H](C)N(C)C[C@H]1C	8	4
CO[C@@H]1CN(C)C(=O)c2cc(NS(=O)(=O)c3cn(C)cn3)ccc2OC[C@H](C)N(CC2CC2)C[C@@H]1C	17	15
COc1ccc(CN2C[C@H](O)COC[C@H]3O[C@H](CC(=O)N4CCc5ccccc5C4)CC[C@@H]32)cc1	-31	-29
C[C@H](CO)N1C[C@H](C)[C@@H](CN(C)S(=O)(=O)c2ccccc2F)Oc2ncc(C#Cc3ccccc3)cc2C1=O	-30	-20
OC[C@@H]1Nc2ccc(-c3cccc(F)c3)cc2[C@H]2[C@@H]1CCN2Cc1ccncc1	-34	-18
Cc1ccc(-c2ccc3c(c2)O[C@H](CN(C)C(=O)CN(C)C)[C@H](C)CN([C@@H](C)CO)S3(=O)=O)cc1	-27	-23
C[C@@H]1CCCCO[C@@H](CN(C)Cc2ccc(C(F)(F)F)cc2)[C@@H](C)CN([C@@H](C)CO)C(=O)c2cc(NC(=O)c3ccncc3)ccc2O1	?	nt
CN1CCN(C(=O)C[C@@H]2CC[C@@H]3[C@@H](COc4ccc(NC(=O)C5CCC5)cc4C(=O)N3C)O2)CC1	12	6
N#Cc1ccc(-c2ccc3c(c2)[C@H]2[C@H](CCN2C(=O)Cc2ccccc2)[C@H](CO)N3)cc1	0	5
Cc1noc(C)c1S(=O)(=O)Nc1ccc2c(c1)C(=O)N([C@@H](C)CO)C[C@H](C)[C@@H](CN(C)Cc1ccc(Cl)c(Cl)c1)O2	-15	-4
C[C@@H]1CCCCO[C@@H](CN(C)C(=O)Cc2ccccc2)[C@@H](C)CN([C@H](C)CO)C(=O)c2cc(NC(=O)Nc3ccc(C(F)(F)F)cc3)ccc2O1	7	6
CNC[C@@H]1Oc2c(NS(C)(=O)=O)cccc2C(=O)N([C@@H](C)CO)C[C@H]1C	17	11
COc1cccc(S(=O)(=O)N2C[C@@H](O)COC[C@@H]3O[C@H](CC(=O)N4CCN(C)CC4)CC[C@H]32)c1	6	0
CCC(=O)N1C[C@@H](C)[C@@H](OC)CN(C)C(=O)c2cc(NC(=O)COC)ccc2OC[C@H]1C	17	7

Part of the list above, with two lines to a compound:
Order of values – Vaccinia stage	Vaccinia stage Venus
> Cc1noc(C)c1NC(=O)N(C)C[C@H]1Oc2ccc(NC(=O)Nc3ccc(C(F)(F)F)cc3)cc2CC(=O)N([C@@H](C)CO)C[C@@H]1C
→ 8	10
> C[C@@H]1CN([C@@H](C)CO)C(=O)c2cc(C#CCN(C)C)cnc2O[C@@H]1CN(C)S(=O)(=O)c1ccccc1
→ 0	0
> Cc1noc(C)c1NC(=O)N(C)C[C@H]1Oc2ccc(NC(=O)Nc3ccc4c(c3)OCO4)cc2C(=O)N([C@@H](C)CO)C[C@@H]1C
→ 6	1
> C[C@@H]1CN([C@H](C)CO)C(=O)c2cc(C#Cc3ccc(F)cc3)cnc2O[C@@H]1CN(C)C(=O)c1ccccc1F
→ ?	nt
> CNC[C@H]1OCCCC[C@@H](C)Oc2ccc(NC(=O)Cc3ccccc3)cc2C(=O)N([C@H](C)CO)C[C@H]1C
→ 2	3
> CO[C@H]1CN(C)C(=O)c2cc(NC(=O)Nc3ccccc3F)ccc2OC[C@@H](C)N(CC2CC2)C[C@H]1C
→ -3	-3
> O=C(C[C@@H]1CC[C@@H](NC(=O)C2CCC2)[C@@H](CO)O1)NCc1ccccc1Cl
→ 11	8
> CCC(=O)N(C)C[C@H]1Oc2cc(-c3cccc(F)c3)ccc2S(=O)(=O)N([C@H](C)CO)C[C@H]1C
→ 1	-10
> O=S(=O)(c1ccccc1)N1CCCCN2[C@@H](CO)[C@H](c3ccc(-c4ccccc4)cc3)[C@@H]2C1
→ 14	12
> COCc1cn(CC[C@@H]2CC[C@H](NC(=O)Nc3ccccc3)[C@H](CO)O2)nn1
→ 4	6
> O=C(C1CC1)N1CC[C@@H]2[C@H](CO)Nc3ccc(Br)cc3[C@@H]21
→ -25	-19
